# Source: PubChem (ICCB-Longwood Screening Facility, Harvard Medical School)
# Sa helicase inh: blocks Staphylococcus aureus DNA helicase; purified S. aureus helicase, fluorescence unwinding assay; about half of the hits fall short of the stated cut; inhibition, %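 (tested at about 80 µM)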; actives 0.05% (n = 120,000); AID 485395;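 active means both duplicates at 50% or more, or one of them with a favoured structure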;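 further: 0% = mean of negative control wells and 100% = mean of positive control wells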
# MgrA-DNA mod: modulators of Staphylococcus aureus MgrA DNA binding; fluorescence polarization; inhibition, %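 (about 10 µg/mL by stock and volumes)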; actives 0.13% (n = 84,000);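 active means above 50% in either of two replicates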;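 further: 0% = protein plus DNA without compound and 100% = DNA alone without protein; higher means less MgrA bound to DNA so lower polarization; one replicate is shown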
# * = called active by the depositor; / = no result given; & = joins results of further samples. This is a subset, so the mix of outcomes need not match the whole.
Sa helicase inh,MgrA-DNA mod,molecule
6&6,-5.3,Cc1nnc2c3c(-c4ccccc4)csc3ncn12
-17,/,CC1(C)C2=CC3(C)N(CC(=O)N2c2ccccc21)c1ccccc1C3(C)C (configuration not stated)
-12,/,O=C(CN1C(=O)CCC1=O)Nc1nc(-c2ccccc2)cs1
/,-1.6,CCOC(=O)C1=C(C)N=c2s/c(=C\c3ccccc3Cl)c(=O)n2C1c1ccc(OC(C)=O)c(OC)c1 (configuration not stated)
-26,/,COc1ccc(-n2nc(C(=O)NCC(=O)Nc3ccccn3)c3ccccc3c2=O)cc1
5,-4.4,COc1ccc(Cl)cc1NC(=O)CN1CCCC(c2nnc(SC)n2C(C)C)C1 (configuration not stated)
-5,/,O=C(CSc1ccc(S(=O)(=O)N2CCCC2)cn1)Nc1ccc2c(c1)OCCCO2
10,-4.6,CC(C)C(CC(=O)O)c1ccco1 (configuration not stated)
3,12,Cc1c(/C=C(/C#N)C(=O)Nc2ccc(Cl)cc2)c2ccccc2n1C
-19,/,COc1cccc(CC(=O)Nc2nnc(SCc3ccc(C#N)cc3)s2)c1
7,-3.2,CC(=O)Nc1nc(C)c(Cc2ccccc2)c(=O)[nH]1
-3,/,CC1CC(C)CN(C(=O)COC(=O)c2ccccc2NC(=O)c2ccco2)C1 (configuration not stated)
18,8.6,Oc1ccc(C(=S)N2CCCCC2)cc1
-13,/,CC(SC1CCCCC1)C(=O)Nc1ccc(S(N)(=O)=O)cc1 (configuration not stated)
/,-0.7,O=C(Oc1ccccc1N1CCOCC1)c1ccco1
-17,/,Cn1ncc2c(=O)n(CC(=O)NC34CC5CC(CC(C5)C3)C4)cnc21
/,-1.0,CCOC(=O)CNc1ccccc1C#N
-33,/,COC(=O)c1sccc1NC(=O)c1ccc2nonc2c1
15,-0.6,COc1ccccc1NC(=O)c1oc2ccccc2c1NC(=O)CSCc1ccccc1
14,-0.8,COc1cc2ccccc2cc1C(=O)OCC(=O)Nc1ccccc1Cl
7,/,CCOC(=O)C(C)Sc1nnc(Cc2cc(=O)[nH]c(=O)[nH]2)n1-c1cccc(OC)c1 (configuration not stated)
6,0.9,Cc1cc(Oc2ccccc2)nc(SCc2ccccc2)n1
-11,-0.5,CCc1cc2c(=O)c(Oc3ccc(F)cc3)c(C)oc2cc1O
0,/,CC(=O)Nc1ccc(S(=O)(=O)N(C)S(=O)(=O)c2ccc(F)cc2)cc1
-20,/,CC1(C)NC(=O)N(Cc2ccccc2)C1=O
-2,4.0,O=c1[nH]c2ccc(N=Cc3ccc(F)cc3)cc2[nH]1
-16,/,CNC(=S)N/N=C/c1cc(C)ccc1C
/,1.1,CCNc1nc(NCC)nc(SCCOC(=O)c2ccccc2)n1
/,-0.2,O=S1(=O)CCN(C2CCN(Cc3ccccc3)CC2)CC1
15,/,Nc1cc(N)nc(SCc2cccnc2)n1

# Reformatted in CSV form: 4 of the compounds above
canonical_smiles,Sa helicase inh,MgrA-DNA mod
O=C(CN1C(=O)CCC1=O)Nc1nc(-c2ccccc2)cs1,-12,/
CCOC(=O)C1=C(C)N=c2s/c(=C\c3ccccc3Cl)c(=O)n2C1c1ccc(OC(C)=O)c(OC)c1 (configuration not stated),/,-1.6
COc1ccc(-n2nc(C(=O)NCC(=O)Nc3ccccn3)c3ccccc3c2=O)cc1,-26,/
COc1ccc(Cl)cc1NC(=O)CN1CCCC(c2nnc(SC)n2C(C)C)C1 (configuration not stated),5,-4.4

# Reprinted at random: four entries already listed.
Sa helicase inh,MgrA-DNA mod,molecule
-17,/,Cn1ncc2c(=O)n(CC(=O)NC34CC5CC(CC(C5)C3)C4)cnc21
-11,-0.5,CCc1cc2c(=O)c(Oc3ccc(F)cc3)c(C)oc2cc1O
14,-0.8,COc1cc2ccccc2cc1C(=O)OCC(=O)Nc1ccccc1Cl
-12,/,O=C(CN1C(=O)CCC1=O)Nc1nc(-c2ccccc2)cs1

# Entries of single compounds, quoted from the list. Order of screens: Sa helicase inh	MgrA-DNA mod
# CCOC(=O)C(C)Sc1nnc(Cc2cc(=O)[nH]c(=O)[nH]2)n1-c1cccc(OC)c1 (configuration not stated) is entered as 7	/
# Cn1ncc2c(=O)n(CC(=O)NC34CC5CC(CC(C5)C3)C4)cnc21 is entered as -17	/
# CCOC(=O)C1=C(C)N=c2s/c(=C\c3ccccc3Cl)c(=O)n2C1c1ccc(OC(C)=O)c(OC)c1 (configuration not stated) is entered as /	-1.6
# CC1(C)C2=CC3(C)N(CC(=O)N2c2ccccc21)c1ccccc1C3(C)C (configuration not stated) is entered as -17	/
# CC(=O)Nc1ccc(S(=O)(=O)N(C)S(=O)(=O)c2ccc(F)cc2)cc1 is entered as 0	/

# Next results:
Sa helicase inh,MgrA-DNA mod,molecule
-3,0.4,CCC(C)N1CCN(C2CCCCC2)CC1 (configuration not stated)
-8,-1.6,C=CCNCc1ccc(-c2ccc(C(C)O)cc2)o1 (configuration not stated)
5,-1.6,CC1CCCC(C)N1S(=O)(=O)c1ccccc1 (configuration not stated)
9,/,COc1cccc(OCC(=O)N(C)C2CCS(=O)(=O)C2)c1 (configuration not stated)
/,3.0,CC(=O)N(C)c1ccc(N=Cc2ccc(C)o2)cc1
15,4.5,O=C(c1ccc2c(=O)n3c(nc2c1)CCCCC3)N1CCCC1
/,-3.1,O=C(Nc1cccnc1N1CCOCC1)c1cccs1
19,1.9,CCOC(=O)c1ccc(NC(=O)NC(C)c2ccc3c(c2)OCO3)cc1 (configuration not stated)
3,-2.6,O=C(C1CCCCC1)N1CCCCCCC1
11,-1.1,CCOC(=O)N1CCC(NC(=O)c2cc3cc4cc(OC)ccc4nc3o2)CC1
-1,1.1,c1ccc(-c2cc3ccccc3[nH]2)cc1
/,0.4,COC(=O)Cc1c(OC(C)=O)[nH]c(C)c1C(=O)OC
-4,2.5,O=C(c1ccccc1)c1cnc(Nc2nc3ccccc3o2)nc1-c1ccccc1
/,-0.9,CC(C)(C)c1ccc(-c2nc3ccccc3c(=O)o2)cc1
13,/,COc1ccccc1C(O)(c1ccc(O)cc1)C(CN1CCOCC1)c1ccccc1 (configuration not stated)
4,4.9,COc1cc(N)ncn1
7,/,CN(C)S(=O)(=O)c1cccc(C(=O)N=C=S)c1
2,1.1,c1ccc(Cn2c3c(c4ccccc42)CCOc2ccccc2-3)cc1
4,-1.6,CCc1cc2cc(C)cc(C)c2nc1Cl
-22,/,COc1cc(Cl)c(S(=O)(=O)NCc2ccccn2)cc1Cl
-2,-3.7,Cc1cc2c(=O)[nH][nH]c(=S)n2n1
-5,-0.1,Cn1cccc1Cc1nnc(SCC(=O)Nc2ccccc2C(F)(F)F)n1CCc1ccccc1
-9,1.5,COc1ccc(N2CCN(C(=S)Nc3ccccc3)CC2)cc1
/,0.0,COc1cc(C2NC(=O)N(C)C(C)=C2C(=O)OCc2ccccc2)cc(Br)c1O (configuration not stated)
14,/,Cc1cc(C)c2c(-n3cccc3)c(C(=O)NCCc3ccc(S(N)(=O)=O)cc3)sc2n1
-13,-0.6,Nc1ccc(C(F)(F)F)c(C(F)(F)F)c1
2,/,COc1ccc(NC(=O)N2CC(C)Sc3ccccc32)cc1 (configuration not stated)
/,-3.6,COC(=O)C(Cc1c[nH]c2ccccc12)NC(=O)c1cccs1 (configuration not stated)
-16,/,CNCC(=O)NC(C)(C)C
-2,-1.5,COc1ccc2c(=O)c(NC(=O)Nc3ccc(F)cc3F)c[nH]c2c1

Sa helicase inh,MgrA-DNA mod,molecule
10,/,Cc1ccccc1-n1cnnc1SCC(=O)c1cc(C)n(C2CCS(=O)(=O)C2)c1C (configuration not stated)
-11,0.2,Nc1ccc(NC(=O)CCN2CCOCC2)cc1
/,-0.5,O=C(c1cccs1)N(Cc1cccnc1)Cc1ccc(Cl)cc1Cl
11,/,Cc1ccc(/C=C2/SC(=S)N(c3ccc(C(=O)O)c(O)c3)C2=O)o1
27,/,Cc1cc(=O)[nH]c(N/N=C/CCc2ccccc2)n1
/,-1.1,O=C(Nc1nnc(Sc2ccnc3cc(Cl)ccc23)s1)c1cccs1
-4,/,CN1CCN(C(=O)c2n[nH]c(=O)c3ccccc23)CC1
/,0.5,CC1=C(C(=O)OCCc2ccccc2)C(c2coc3ccccc3c2=O)C2=C(CCCC2=O)N1 (configuration not stated)
0,-1.5,Nc1c(C(=O)N2CCOCC2)nnn1-c1ccccc1
-2,-3.2,Cc1ccccc1NC(=O)NC(C)(C)CC(C)(C)C
-1,1.1,NC(=O)C1CCN(C(=O)CC(c2ccccc2)c2ccccc2)CC1
8,-0.5,O=C(NCCn1cccc1)c1cccc2ccccc12
-4,/,COC(=O)c1c(NC(=O)CSc2nncs2)sc2c1CCCCC2
7,-1.9,CC1C2CC(=O)N(C)C1(C)Oc1ccccc12 (configuration not stated)
-9,/,N#CC1(c2ccc(Cl)cc2)CCCCC1
-3,/,O=C(CNc1cc(=O)[nH]c(=S)[nH]1)NCc1ccco1
-3,2.0,CC(C)Cc1cc(-c2cccc(Br)c2)c(C#N)c(N)n1
-5,/,CCC(C(=O)O)n1cnc2ccccc21 (configuration not stated)
/,0.1,CCOc1ccc(/C=N/NC(=S)NCCCOC)cc1
-2,/,S=c1[nH]nc(CSCCOc2ccccc2)o1
/,-0.1,COc1ccc(C(=O)NCc2ccccc2)cc1OC
6,1.6,N/C(=C\C(=O)c1cccs1)C(F)(F)F
7,-1.3,Cc1cccc(C(=O)NC(C)(C)CC(C)(C)C)c1
/,4.5,COc1cc(/C=C(\C#N)c2ccc(C)cc2)cc(OC)c1OC
/,-3.4,COC(=O)c1conc1C(C)(C)C
/,-1.6,Cc1cn(-c2ncnc3scc(-c4ccccc4)c23)nc1C(F)(F)F
3,-0.5,Cc1cccc(N2C(=O)C3C(C(=O)NC4CC4)C4C=CC3(O4)C2C(=O)NC2CCCC2)c1 (configuration not stated)
7,0.8,COc1ccccc1C(=O)c1nc2ccccc2n1C
/,-2.5,CCOC(=O)c1csc(-c2ccc3c(c2)CCO3)n1
-11,/,COC(=O)c1cc(COC(=O)c2cc(CN3C(=O)c4ccccc4C3=O)ccc2OC)oc1C

Sa helicase inh,MgrA-DNA mod,molecule
-9,-1.1,COc1ccc(CC(=O)NC(c2ccccc2)c2ccccc2)cc1
-4,/,CSc1ccc(CN2C(=O)CCC2(C)C(=O)N2CCCC2)cc1 (configuration not stated)
-17,-2.7,Nc1ccc(SC(F)(F)F)cc1
/,-0.3,O=S(=O)(CCSc1cccs1)c1ccc(F)cc1
13,/,CCOc1ccc(-c2cc(CCCC(=O)Nc3ccc(F)cc3F)no2)cc1
17,/,CC1CCC(NC(=O)C(Cc2ccccc2)NC(=O)C2CCCCC2)CC1 (configuration not stated)
5,0.2,Cc1ccc(-n2c(C)cc(/C=C(\C#N)C(=O)NCC3CCCO3)c2C)cc1 (configuration not stated)
14,-2.2,c1ccc(CSc2nnc(-c3c[nH]c4ccccc34)o2)cc1
-19,0.8,CC(=O)Nc1ccc(S(=O)(=O)N2CCN=C2c2ccccc2)cc1
/,3.0,CCOC(=O)c1nn(-c2cccc(Cl)c2)cc(Sc2ccc(Cl)cc2)c1=O
/,0.2,N#C/C(=C\c1ccc(Cl)cc1)c1ccccc1
/,-0.3,COc1ccc2ccccc2c1S(N)=O (configuration not stated)
9,/,COc1ccc(N2CCN(c3nc(N)c4c(N)nc5c(c4c3C#N)CC(=O)N5C)CC2)cc1
6,-3.5,C=CCc1ccc(OCCCn2ccnc2)c(OC)c1
16,-2.8,O=C(O)CCCc1nnc2n3nc(-c4ccccc4)nc3c3ccccc3n12
/,-0.8,CCOc1ccc2ccccc2c1C(=O)N[C@@H]1C(=O)N2[C@@H]1SC(C)(C)[C@@H]2C(=O)O
-8,/,Cc1ccc2c(c1)sc1nc(=O)n(-c3ccccc3)c(=O)n12
/,0.8,Cc1ccc(SCC(=O)Nc2ccc(Br)cc2)cc1
7,-0.1,COc1ccc(S(=O)(=O)NCc2cn3ccccc3n2)cc1F
-10,/,O=C(CCSc1ccc(Cl)cc1)Nc1ccccc1
8,18,Cc1cc(NC(=S)N(C)C)ccc1Br
29,12,COC(=O)c1c(NC(=S)n2cc(C)cn2)sc2c1CCC(C)C2 (configuration not stated)
-4,7.2,CN1CCN(C(=S)Nc2ccc(S(N)(=O)=O)cc2)CC1
7,-0.6,CCC(C)NC(=O)Cn1c(=O)n(Cc2ccccc2Cl)c(=O)c2cc(OC)c(OC)cc21 (configuration not stated)
37,/,CC(=O)N1C(=O)NC2NC(=O)N(C(C)=O)C21 (configuration not stated)
6,-0.2,CCS(=O)(=O)NCCc1csc(-c2ccccc2)n1
-11,/,Cc1noc(C)c1COC(=O)[C@H](C)N=C1NS(=O)(=O)c2ccccc21
-12,/,Cc1ccc(C)c(OCc2nnc(SC/C(O)=C(\C#N)c3nc4ccccc4[nH]3)o2)c1
0,-4.5,O=C(O)c1ccc(Cn2cccn2)cc1
/,4.3,COC(=O)c1ccc(S(N)(=O)=O)n1C

Sa helicase inh,MgrA-DNA mod,molecule
1,-1.0,CCN(C(=O)c1cc2cc(OC)ccc2oc1=O)c1cccc(C)c1
8,1.2,COC(=O)c1ccc(NC(=S)N2CCOCC2)cc1
/,-1.1,CCOC(=O)c1c(C)cccc1NC(=O)c1cccs1
7,-3.5,Cc1ccc(SC(C)C(=O)Nc2ccc3c(c2)OCO3)cc1 (configuration not stated)
/,0.8,N#CCc1ccc(Oc2c(Cl)cncc2Cl)cc1
-13,2.8,O=S(=O)(NCc1ccccc1)N1CCCCC1
4,/,CCOc1ccc(CSc2ncn[nH]2)cc1
13,3.4,CCOC(=O)c1c(C)oc2c1c(C=NC1CCCC1)c(O)c1ccccc12
11,-2.1,CN(CC(=O)NC1CCCCC1)S(=O)(=O)c1ccccc1
/,-6.1,CN(C)/C=N/c1nnc(Sc2ccnc3cc(Cl)ccc23)s1
9,1.1,COc1cc2c(C(=O)Nc3ccc(F)cc3)cn(CC(C)C)c(=O)c2cc1OC
6,-0.1,O=C(NCCC1=CCCCC1)c1cc(Sc2ccc(F)cc2)nc2ccccc12
0,-2.2,O=C(NC1CCCCC1)NC1CCN(S(=O)(=O)c2cccc(Cl)c2)CC1
